Screening data as filed in PubChem.
miR-21 FLuc = miR-21 reporter, rising signal | HeLa miR-21 FLuc reporter, luciferase, 48 h | Potency, µM (titrated, usually from 38.3 µM), without a hit: top-dose reporter change, positive = more light | 340,000 tested, under 10 active; active = well fitted rising curve with a large enough effect; inconclusive = small, poorly fitted or top-dose-only effect; inactive = no such curve, though single readings can be large or run the other way;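 further: % of control where 0% means no effect; miR-21 action dims this reporter so a rising signal means less miR-21 action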
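HeLa cells endogenously expressing miR-21, stably carrying CMV-driven firefly luciferase with a downstream miR-21 binding site, 2000 cells/well. Titrations up to approximately 40 uM, 48 hours; luciferase luminescence read.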
GLA inh pH 4.5 = alpha-galactosidase A (human) inhibition, pH 4.5; 230,000 tested, under 10 active; purified enzyme, 4-MU-alpha-Gal fluorescence, pH 4.5; AID 1467; P06280; activity change, negative = inhibition, % at 105 µM; inconclusive = small, poorly fitted or top-dose-only inhibition, or a rising curve; inactive = flat fitted curve, though single readings scatter; no compound was filed as active;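 further: 0% = full activity with enzyme and -100% = basal without enzyme; dose as in the result columns while the protocol names 77 µM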
Target sequence (P06280 whole entry, looked up): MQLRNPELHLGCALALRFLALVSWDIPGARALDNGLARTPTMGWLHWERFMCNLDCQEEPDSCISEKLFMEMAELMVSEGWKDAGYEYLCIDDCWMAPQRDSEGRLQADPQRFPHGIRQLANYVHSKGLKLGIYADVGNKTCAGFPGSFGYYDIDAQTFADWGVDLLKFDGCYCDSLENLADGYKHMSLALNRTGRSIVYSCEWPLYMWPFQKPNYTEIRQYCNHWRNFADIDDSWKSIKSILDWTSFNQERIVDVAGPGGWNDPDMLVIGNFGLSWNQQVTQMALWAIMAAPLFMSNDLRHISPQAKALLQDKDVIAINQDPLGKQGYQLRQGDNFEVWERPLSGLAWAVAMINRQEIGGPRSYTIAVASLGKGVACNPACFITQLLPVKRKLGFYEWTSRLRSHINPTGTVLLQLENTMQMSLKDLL
Rango complex inh = inhibitors of Rango-importin beta complex formation | Rango CFP/YFP FRET sensor + importin beta, 45 min | Potency, µM (doses to about 92.2 µM), without a hit: top-dose inhibition of complex formation | Q14974 | hit rate 0.031% among 340,000; active = rising FRET ratio curve, often small or poorly fitted; inconclusive = mostly compound fluorescence or quenching in the first reads; inactive = flat curves in all reads;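 further: potency means the concentration at half of the fitted maximal effect; 0% = DMSO wells and 100% = buffer wells lacking importin beta; nearly all actives have a fitted effect of over 15% in size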
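Inhibition scored from the CFP 486 nm/YFP 530 nm FRET ratio 45 min after adding 0.125 microM importin beta to 50 nM Rango biosensor preincubated 5 min with compound (room temperature, PBS with DTT, Tween-20, BSA). No-importin wells as positive control.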
Rango release inh = prevents RanGTP from dissociating the Rango-importin beta complex; O95149+P62826; Biochemical FRET Rango-importin beta, RanGTP-induced dissociation; Potency, µM (top dose mostly 46.1 µM), for inactives: at the top dose activity change, negative = inhibition; hit rate 0.071% among 340,000; AID 540253; active means falling FRET ratio curve, often poorly fitted, with flat reads before Ran was added; inconclusive means other falling curves, or compound fluorescence or quenching; inactive means flat or rising ratio curve;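 further: potency means the concentration at half of the fitted maximal effect; % of control where 0% means no effect; nearly all actives have a fitted effect of over 45% in size; -100% = wells without RanGTP and RCC1; the record marks most hits as doubtful in a second field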
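Two FRET readings bracket the reaction: one 5 min after compound meets Rango–importin beta, another 45 min after RanGTP-RCC1 (0.6 uM Ran, 0.2 uM RCC1, 2 mM GTP) is added. Only the second defines inhibition.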
* = called active by the depositor; ? = inconclusive; · = not tested or not shown; & = joins results of further samples.

no.	Molecule	miR-21 FLuc	GLA inh pH 4.5	Rango complex inh	Rango release inh
1	Cc1cc2cc(CCNS(=O)(=O)c3ccc(F)cc3)c(=O)[nH]c2cc1C	25.0%	·	4.8%	4.6%
2	O=C(NCCC1=CCCCC1)C1CCC(CNc2c(N3CCCC3)c(=O)c2=O)CC1 (stereo not drawn)	-2.6%	-5.6	-1.1%	-4.8%
3	CCCOc1ccc(C(=O)NC(=S)NCc2cccnc2)cc1	-3.9%	0.7	-0.9%	-2.2%
4	O=C(O)C1CN(C(=O)c2ccccc2)c2cc(Cl)ccc2O1 (stereo not drawn)	0.6%	·	-1.9%	-2.3%
5	COc1ccc(OC)c(NC(=O)c2cc(-c3cc(C)cc(C)c3O)n[nH]2)c1	-5.3%	·	0.0%	3.3%
6	CC(=O)Nc1cc(C(F)(F)F)ccc1OCCOc1ccccc1	·	·	?	-11.2%
7	COc1ccccc1-c1cc(C(=O)O)c2c(=O)n(C)c(=O)n(Cc3ccccc3)c2n1	0.7%	·	-0.7%	-15.8%
8	CC[n+]1ccc(C[n+]2ccccc2)c2ccccc21	-3.7%	-3.1	-2.2%	-25.8%
9	Cc1ccc(-c2cc(C(=O)NCc3ccc4c(c3)OCO4)[nH]n2)c(O)c1C	-12.8%	0.6	-5.3%	20.2%
10	CCN(c1ccccc1)S(=O)(=O)c1ccc(NCC2COc3ccccc3O2)nc1 (stereo not drawn)	-14.5%	-1.8	-0.8%	2.6%
11	CC(Oc1ccc(Cl)cc1)c1ccnn1S(=O)(=O)c1ccc(Cl)cc1 (stereo not drawn)	-0.3%	-7.1	1.4%	16.4%
12	CCc1noc(C)c1C(=O)N(CC)c1nc2c(C)cccc2s1	·	·	-0.7%	0.5%
13	Cc1cccc(CS(=O)(=O)Cc2ccc(C(=O)NCc3cccnc3)o2)c1	0.7%	10.7	1.0%	2.1%
14	Nc1c(C(=O)Nc2ccc(F)cc2)sc(=S)n1-c1ccccc1F	-47.8%	-4.6	?	15.4%
15	COc1ccc(/C=N/NC(=O)c2ccncc2)cc1COc1ccc(NC(C)=O)cc1	22.6%	-5.1	4.2%	10.4%
16	COC(=O)C(CC(C)C)N1CCC(=O)c2ccccc2S1(=O)=O (stereo not drawn)	-0.7%	3.1	5.9%	-11.0%
17	CCc1ccc2[nH]c(=O)c(CN(CCCN3CCOCC3)C(=O)Nc3ccc(Cl)cc3)cc2c1	-3.2%	1.5	0.5%	2.8%
18	Cc1ccc(NCc2cccc(B(O)O)c2)cc1	·	·	-0.1%	3.6%
19	COc1ccc(NC(C)c2ccccc2)cc1 (stereo not drawn)	-14.6%	-2.7	-1.6%	9.5%
20	Cc1ccc(NC(=O)C(=O)NCC2OCCc3ccccc32)cc1 (stereo not drawn)	-10.4%	1.7	-1.7%	6.2%
21	CCCc1c(C)c2cc(C)ccc2[nH]c1=O	-8.2%	-0.5	-8.0%	12.0%
22	CCOc1ccc(S(=O)(=O)Nc2nccs2)cc1	-1.3%	-11.1	-1.7%	3.9%
23	Cc1ccc2[nH]c(=O)c(CN(CCCN3CCOCC3)C(=O)NC3CCCCC3)cc2c1	-7.8%	-2.5	-1.4%	-2.9%
24	COc1ccc(NC(=O)N(CCc2ccccc2)Cc2cc3c(C)cc(C)cc3[nH]c2=O)cc1	-33.9%	-0.2	1.0%	0.7%
25	CC(C)Sc1n[nH]c(=O)n1-c1ccccc1	-4.6%	-1.2	-3.8%	34.4%
26	O=C(NC(=S)Nc1ccc2c(c1)OCCO2)c1cccc2ccccc12	-57.5%	-9.9	-0.6%	1.2%
27	CC(C)CCNC(=O)NC(=O)COC(=O)C1=COCCO1	-4.7%	·	-4.8%	0.8%
28	Cc1ccc(C)c(-n2nnnc2SCC(=O)Nc2cccc(-c3nnc4n3CCCCC4)c2)c1	4.5%	17.2	?	5.1%
29	O=C(NC1CCS(=O)(=O)C1)c1cccc(S(=O)(=O)N2CCCCC2)c1 (stereo not drawn)	-0.7%	-5.9	-0.8%	-5.2%
30	CCOc1ccc(S(=O)(=O)N2CCN(CC(O)COc3cccc([N+](=O)[O-])c3)CC2)cc1 (stereo not drawn)	5.7%	·	-0.4%	5.0%
31	C=CCNC(=S)NNC(=O)c1ccc(OCCC)cc1	-9.4%	5.7	-1.6%	2.4%
32	COc1ccc(-c2noc(CCCC(=O)Nc3cccnc3)n2)cc1OC	-4.0%	-2.4	-0.2%	1.9%
33	CCN1CCN(C(=O)C2(NC(=O)Nc3cccc(F)c3)CCCCC2)CC1	-7.1%	-9.7	0.0%	0.7%
34	COc1ccccc1C1NC(=O)NC(C)=C1C(=O)OC1CCCC(C)C1 (stereo not drawn)	-11.4%	·	-0.1%	17.8%
35	CC(=O)OCC1OC(Nc2cccc(C)c2)C(OC(C)=O)C(OC(C)=O)C1OC(C)=O (stereo not drawn)	-8.4%	-3.0	-0.1%	3.9%
36	C/C(=N/NC(=O)c1ccc(O)cc1)c1cccc([N+](=O)[O-])c1	-49.2%	-5.0	-1.5%	-0.7%
37	CC(C)c1nc2oc3c(NCc4cccnc4)ncnc3c2c2c1CCC2	-12.9%	-1.9	3.4%	-13.8%
38	CC1CCCN(CCCNC(=O)C2CC(=O)N(c3ccc(F)c(Cl)c3)C2)C1 (stereo not drawn)	-1.9%	8.1	3.8%	0.0%
39	Cc1cc(C)n(-c2nc(C)nc(NCc3ccccc3)n2)n1	6.0%	2.8	-0.9%	0.6%
40	CC(=O)Nc1cc(NC(=O)C2C3C=CC(C3)C2C(=O)O)ccc1Cl (stereo not drawn)	-13.2%	-2.9	-1.5%	8.7%
41	COc1cccc(CNC(=O)Cc2c(C(=O)O)[nH]c3ccccc23)c1	0.2%	3.8	0.0%	-0.9%
42	CC1(C)Cc2nc3sc(C(=O)NCCCO)c(N)c3cc2CS1	-28.7%	8.5	?	-15.8%
43	COc1ccc(C(=O)NCCN2C(=O)S/C(=C\c3cccnc3)C2=O)cc1[N+](=O)[O-]	-32.7%	-2.1	-1.0%	14.8%
44	N/C(=N\OC(=O)c1cccs1)c1cccc([N+](=O)[O-])c1	-46.1%	-3.9	1.0%	9.9%
45	COc1cc2cc(CN(CCCN3CCOCC3)Cc3nnnn3Cc3ccccc3)c(=O)[nH]c2cc1OC	-7.9%	12.5	?	?
46	O=C(CCS(=O)(=O)Cc1ccc(Cl)cc1)NCCCN1CCOCC1	-7.3%	8.5	2.4%	11.5%
47	COC(=O)c1ccc(OC(=O)/C=C/c2ccco2)cc1	-0.9%	·	1.4%	18.4%
48	O=C(NCc1ccccn1)c1cc2ccccc2oc1=O	-55.0%	-4.2	-0.3%	15.6%
49	COc1ccc(/C=C/C(=O)OCC(=O)NC2CCCC2)c(OC)c1	·	·	1.8%	4.9%
50	CCOC(=O)C1(Cc2ccccc2Cl)CCN(S(C)(=O)=O)CC1	-1.3%	2.8	1.9%	9.9%
51	Clc1ccc(Cc2noc(Cc3ccccc3)n2)cc1Cl	-9.2%	1.5	1.0%	0.1%
52	COCCCn1c(-c2cccc(Cl)c2)nc2c1c(=O)[nH]c(=O)n2Cc1ccccc1	-4.3%	·	0.2%	11.1%
53	COc1ccc(N2CCn3c2nc2c3c(=O)n(CCCc3ccccc3)c(=O)n2C)c(OC)c1	2.3%	-9.1	-2.8%	30.5%
54	Cc1onc(-c2ccccc2Cl)c1C(=O)Nc1cccc2nsnc12	1.5%	-12.2	?	-8.9%
55	O=C(NCCSc1ncc(-c2ccc(F)cc2)[nH]1)c1ccco1	·	·	0.0%	-8.8%
56	O=C1C[C@@H]2c3c(cccc3CN1Cc1ccccc1Cl)C[C@@H](O)[C@H]2O	·	·	-0.5%	-5.6%
57	Cc1cc(C)c(/C=C(\C#N)S(=O)(=O)c2ccccc2)[nH]1	0.7%	-5.6	-3.0%	-3.7%
58	N#C/C(=C/c1cc(Cl)c(O)c(Cl)c1)C(=O)N1CCCCC1	-4.0%	·	?	?
59	Cc1ccc(S(=O)(=O)Nc2cc(C)c(O)c(Sc3n[nH]c(C)n3)c2)cc1	8.6%	·	1.9%	-1.9%
60	NNC(=O)c1ccncc1	-0.7%	-4.7&-2.2&1.0	-1.7%	0.0%

(further entries)
no.	Molecule	miR-21 FLuc	GLA inh pH 4.5	Rango complex inh	Rango release inh
61	CC(C)(C)C(=O)NC(CC(=O)O)c1ccccc1 (stereo not drawn)	2.0%	6.6	2.2%	-25.4%
62	O=C(CCl)NNC(=O)c1c(O)c2ccccc2[nH]c1=O	24.4%	-1.2	8.1%	10.6%
63	CCCC(=O)Nc1cc(-c2nc3ncccc3o2)ccc1Cl	-5.1%	·	7.1%	-14.1%
64	c1ccc(CCc2nc(-c3ccccn3)no2)cc1	-51.1%	-3.5	-2.9%	2.7%
65	O=C1c2cccnc2C(Nc2ccc(Cl)cc2)N1Cc1cccs1 (stereo not drawn)	3.5%	-6.2	-0.4%	-9.0%
66	CCOc1ccccc1CNS(=O)(=O)c1cc(-c2cc(C)no2)ccc1C	1.0%	·	-1.3%	-8.3%
67	COc1nccnc1NS(=O)(=O)c1ccc(NS(=O)(=O)c2ccc(NC(C)=O)cc2)cc1	-0.1%	16.7	3.1%	8.6%
68	O=C(Cn1c(-c2ccccc2)noc1=O)NCc1ccccc1	-8.2%	-1.7	2.0%	22.8%
69	O=c1c2nccnc2[nH]c(=S)n1Cc1ccccc1	-2.4%	-1.3	-0.5%	0.8%
70	Cc1c(/C=N/O)c2ccccn2c1C(=O)c1ccc(F)cc1	-8.2%	·	?	-17.5%
71	Cc1ccc(NS(=O)(=O)c2cccc(C(=O)NCCCn3ccnc3)c2)cc1	·	·	-0.4%	-11.1%
72	COc1ccccc1OCC(=O)Nc1c2c(nn1-c1ccccc1)CS(=O)(=O)C2	-0.6%	·	-0.2%	-16.7%
73	COC(=O)c1ccccc1S(=O)(=O)N1CCC(c2nc3ccccc3o2)CC1	0.1%	2.8	-1.0%	3.9%
74	O=C(NC12CC3CC(CC(C3)C1)C2)N1CCC(O)(c2ccc3c(c2)OCO3)CC1	3.0%	-1.5	3.0%	3.0%
75	COC(=O)C1C(=O)CC(C)(O)C(C(=O)OC)C1c1ccccc1F (stereo not drawn)	-1.4%	11.3	1.2%	3.8%
76	COC(=O)C1(C)NC(c2ccc(O)cc2)C2C(=O)N(c3ccc4c(c3)OCCO4)C(=O)C21 (stereo not drawn)	-2.3%	4.4	-0.2%	1.9%
77	C=CCNC(=O)COc1cc(C)cc(C)c1C	-4.2%	1.7	-3.8%	-8.3%
78	CC(C)c1nnc(NC(=O)CCC(=O)N2CCN(C3c4ccccc4-c4ccccc43)CC2)s1	-6.5%	-3.5	2.1%	4.4%
79	Cc1ccc(S(=O)(=O)Cn2nnnc2CN2CCN(Cc3ccc4c(c3)OCO4)CC2)cc1	-3.6%	-5.1	1.7%	-8.8%
80	O=C(NNS(=O)(=O)c1ccc(F)cc1)c1cc2ccccc2cc1O	-0.9%	·	?	?
81	COc1ccc(C2=CC(c3ccco3)n3ncnc3N2)cc1 (stereo not drawn)	-1.8%	23.5	?	?
82	COc1cc(NC(=O)C(=O)Nc2ccc3nc4n(c(=O)c3c2)CCCCC4)cc(OC)c1OC	0.3%&-7.7%	20.8	7.2%	6.0%
83	CN1CCN(C(=O)CCN2C(=O)c3ccccc3C2=O)CC1	-1.8%	1.7	0.0%	?
84	S=C(NCC1CCCO1)Nc1ccccc1 (stereo not drawn)	-3.0%	6.1	-1.1%	11.5%
85	CCOC(=O)COc1ccc(C(c2c(C)[nH][nH]c2=O)c2c(C)[nH][nH]c2=O)cc1	-2.8%	·	3.1%	-1.6%
86	CCN1CCc2[nH]c3ccccc3c2C1	1.0%	·	-0.5%	23.7%
87	CCOC(=O)N1CCN(C(=O)NC23CC4CC(CC(C4)C2)C3)CC1	-14.5%	-0.9	0.0%	0.9%

An excerpt, so the mix of outcomes need not match the whole.
